# High-throughput results from PubChem.
# PABP polyA inh: PABP-poly(A) binding inhibition | P11940 | PABP-poly(A) RNA binding, fluorescence polarization | inhibition, % at 35 µM | actives 1% (n = 290,000) | AID 2014;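 active = 50% or more with normal probe brightness, or confirmed in later tests; inconclusive = above 50% with abnormal brightness, or retests that disagree; inactive = below 50% or failed in later tests; about a fifth of its hits are not listed in these tables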;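 note: calls also rest on retests at 20 µM and on dose response follow-up; controls were probe without protein and protein plus probe with vehicle; some compounds called inactive have numbers as strong as hits; many hits fall short of the cut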
# CSC inhib: cancer stem cell inhibition; cancer stem cell-like cells viability, luminescence; inhibition, % at 7.5 µM; actives 1.1% (n = 300,000); AID 2717;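 active = mean at 75% or more and at least half the replicates too; inconclusive = mean and replicates disagree; tested in HMLE shEcad cells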;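 note: 0% = median of negative and 100% = median of positive control wells; the first replicate is given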
# eIF4H inh: inhibitors of RNA binding by human eIF4H; Q15056; eIF4H fluorescence polarization binding assay; inhibition, % at 35 µM; actives 0.94% (n = 290,000); AID 2012;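 active = 50% or more with normal probe brightness, or confirmed in later tests; inconclusive = above 50% with abnormal brightness, or retests that disagree; inactive = below 50% or failed in later tests; about a fifth of its hits are not listed in these tables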;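 note: calls also rest on retests at 20 µM and on dose response follow-up; 0% = protein and probe with vehicle and 100% = probe without protein; strong numbers were not always called active; many hits fall short of the cut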
# HIV Env fusion: blocks HIV Env-driven cell-cell fusion. HeLa-JRFL Env/CEM21 cell fusion, luciferase. actives 1.1% (n = 360,000). AID 651610. inhibition, % at 12.3 µM;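 active = mean replicate inhibition score of at least 50 and every replicate individually at or above 50; inconclusive = only one of the two criteria met; inactive = mean below 50 and not all replicates reaching 50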;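 note: 0% = plate neutral controls and 100% = maraviroc near 300 nM; one replicate is shown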
# Rce1 inh: blocks yeast Ras-converting enzyme; AID 2563; yeast membranes, quenched prenylated peptide cleavage fluorescence; actives 0.27% (n = 290,000); calls only; Q03530;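 active = fall in fluorescence gain of 50% or more versus controls, with final raw signal at or below 3038400; inconclusive = same 50% fall but final raw signal above 3038400; inactive = fall in fluorescence gain under 50%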;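 note: plate controls were neutral control wells for no effect and wells lacking membranes for full effect; tested at 10 µM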
# Target sequence (Q03530 whole entry, looked up): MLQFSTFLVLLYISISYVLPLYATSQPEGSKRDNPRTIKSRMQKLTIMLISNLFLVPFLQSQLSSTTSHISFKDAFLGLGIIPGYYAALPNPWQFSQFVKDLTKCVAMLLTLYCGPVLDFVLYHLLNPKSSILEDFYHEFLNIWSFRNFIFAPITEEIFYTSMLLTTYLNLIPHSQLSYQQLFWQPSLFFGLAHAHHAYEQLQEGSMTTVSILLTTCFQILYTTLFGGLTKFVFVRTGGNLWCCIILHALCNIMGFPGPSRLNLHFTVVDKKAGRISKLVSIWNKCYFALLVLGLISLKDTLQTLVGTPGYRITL
# UUG fidelity: modulators of start codon recognition fidelity in yeast. S. cerevisiae UUG-firefly luciferase reporter, luminescence/redox ratio. activity score, % at 18.7 µM. actives 0.13% (n = 350,000). AID 602363;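 active = replicate mean at a twofold rise or more, about +100% in these data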;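 note: firefly luciferase made from a UUG start codon reports start codon fidelity; reporter light over untreated wells divided by growth signal over untreated wells; some hits fall short of that in this replicate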
# MT1-MMP act inh: inhibitors of human MT1-MMP activation. P50281. HT1080 RFP-PRO-GFP cells, GFP/RFP ratio fluorescence, overnight; percent of plate control window, DMSO zero. GFP/RFP ratio change, % at 20 µM. actives 0.061% (n = 360,000);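 active = GFP/RFP ratio change of at least 30% with cell ATP level not reduced by more than half and red fluorescence within 50% of control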; note: strong numbers were not always called active
#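 Assay system: HT1080 RFP-PRO-GFP cells. Benchmarks: DMSO vehicle wells and RFP-L50D-GFP reporter cell wells. Times: overnight cell settling, then overnight compound exposure, 37 °C, 5% CO2. Compound: 20 µM single dose, 1% DMSO. Read-out basis: GFP/RFP fluorescence ratio.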
# eIF4H inh retest: second read-out of eIF4H inh, no call of its own (marks repeat the call); inhibition, %; compound at 20 µM; confirmation average;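 mean of two retest wells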
# PABP polyA inh retest: recorded beside PABP polyA inh, whose call it bears; inhibition, %; compound at 20 µM; confirmation repeats;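 mean of two retest wells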
# MT1-MMP act inh RFP: also measured in MT1-MMP act inh; calls as there; RFP signal change, %; measured here: RFP expression control read;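 0 = vehicle wells; hits needed this value within 50% of zero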
# * = called active by the depositor; i = inactive; ? = inconclusive; . = not tested or not shown. The list is partial. The share of hits here may be higher or lower than overall.
SMILES,PABP polyA inh,CSC inhib,eIF4H inh,HIV Env fusion,Rce1 inh,UUG fidelity,MT1-MMP act inh,MT1-MMP act inh RFP,others
COc1ccccc1OCC(=O)Nc1ccc(S(=O)(=O)Nc2nc(C)cc(C)n2)cc1,-8,-3,-2,.,i,5,.,.,
COc1ccccc1CNC(=O)C1(C)CCN1Cc1ccc2ccccc2c1 (centres undefined),.,.,.,32,.,7,4,-11,
COCCCn1c(SCCc2ccccc2)nc2cc(OC)c(OC)cc2c1=N,5,83*,1,-6,i,-7,2,-5,
Cc1cc(C)n2nc(SCC(=O)Nc3ccccc3F)nc2n1,.,17,.,.,.,-8,18,-3,
CN(Cc1cccnc1)Cc1cn(C)nc1-c1cccc(Cl)c1,8,-31,5,4,i,.,-2,6,
COc1ccc(-n2c(C)nn(C)c2=O)cc1,-3,9,-13,-49,i,-14,3,4,
CC(C)Cn1c(C(C)C)nc([N+](=O)[O-])c1S(=O)(=O)c1ccc(F)cc1,-1,25,-1,40,i,-10,-4,-20,
CCN(CC)CCNC(=O)c1c(O)c2cccc3c2n(c1=O)CCC3,13,.,2,.,i,-14,6,6,
CC1CCCN(C(=O)CSc2nnc3ccccn23)C1 (centres undefined),.,.,.,-17,.,-18,-7,-1,
O=[N+]([O-])c1cccc(C2Nc3ccccc3CO2)c1 (centres undefined),.,.,.,-91,.,-17,1,4,
Cc1ccc(Cn2cccc(NC(=O)c3ccco3)c2=O)cc1,-8,-1,-1,-13,i,-11,2,2,
O=C(CSc1ccccc1F)NC(=O)c1ccccc1Br,.,-12,.,31,.,-9,1,1,
CCCCN(C)CCCNC(=O)CN1C(=O)CSc2ccc(S(=O)(=O)N3CCOCC3)cc21,2,-5,3,-8,.,-14,-5,-4,
O=C(Nc1cccc(C(F)(F)F)c1)C(Sc1ncnc2ccccc12)c1ccccc1 (centres undefined),-2,17,-1,3,i,4,-10,-5,
Cc1cnc(NC(=O)C2(C)CCN2C(=O)C(C)C)s1 (centres undefined),.,.,.,-13,.,-15,-7,-3,
O=C(Nc1ccccc1-c1nnn(CC(=O)N2CCOCC2)n1)c1ccc(F)cc1,2,-2,4,8,i,.,4,0,
COC(=O)c1cc2occc2n1Cc1nc(-c2ccc(Cl)cc2)oc1C,2,9,9,44,i,10,-2,2,
COC(=O)CCN1CCN(S(=O)(=O)c2cccc(Br)c2)CC1,-6,-18,9,-14,i,-15,2,0,
O=C1CN(C(=O)CSc2nc3ccccc3n2CCc2ccccc2)c2ccccc2N1,-6,-19,-13,33,i,.,-4,-1,
CCSc1nnc(NC(=O)CC)s1,-3,8,-12,-6,i,-15,-2,2,
Cc1nn(C)cc1CNC(=O)c1ccccc1Br,6,0,-9,2,i,.,3,4,
Cc1ccc(S(=O)(=O)CC(=O)N(C)C)cc1,4,-8,-2,.,i,-22,1,5,
COC(=O)Cc1ccc(OC2(C)CCN(Cc3csc4ccccc34)C2)cc1 (centres undefined),.,.,.,52,.,19,2,2,
Clc1ccc(OCc2cnc(Cl)s2)cc1,-3,-12,-5,.,i,.,2,0,
CCC(C)N(C(=O)COC(=O)c1ccc(N)c([N+](=O)[O-])c1)C1CCS(=O)(=O)C1 (centres undefined),.,.,.,4,.,1,-1,-5,
CSc1nc(C)cc(SCC(=O)Nc2ccc(Cl)cc2Cl)n1,9,11,-3,-203,i,3,-6,-8,
COc1ccc(/C=N/NC(=S)Nc2c(C)n(C)n(-c3ccccc3)c2=O)cc1OC,-20,.,-16,4,i,.,-3,2,
COc1ccc(-n2cnnc2SCc2csc(-c3ccccc3)n2)cc1,4,-6,-3,36,i,-15,-4,-3,
CCc1ccc(OCC(=O)NNC(=S)NC(=O)C2CC2)c(Br)c1,3,-11,11,49,i,-35,2,-5,
CN(C)c1ccc(C2CC(=O)C=C(Nc3ccccc3N)C2)cc1 (centres undefined),-2,-10,2,-12,i,-7,3,3,
COc1ccc(S(=O)(=O)NC(=O)C2(C)CCN2C(=O)COc2ccc(Cl)cc2)cc1OC (centres undefined),.,.,.,2,.,-9,-2,3,
CCn1c(O)c(N=NC2=NC(=O)CS2)c2ccccc21,2,3,4,.,i,.,3,2,
Cc1ccc(CC2CC(=O)N(c3ncccn3)C2=O)cc1 (centres undefined),-1,-9,2,-9,i,.,0,2,
Nc1nc(SCC(=O)Nc2ccccc2-c2ccccc2)n[nH]1,-10,14,-1,-8,i,-19,-5,-1,
Cc1cccc(NC(=S)N2CCC(NC(=O)c3cccc(F)c3)CC2)c1,3,-12,-3,27,i,-32,3,1,
O=C(Nc1nc2c(s1)CCCC2)c1ccc(Br)s1,-10,5,1,i,i,-39,-24,-26,
CC1(C)CC(=O)C=C(c2ccc(-c3cccc(C(N)=O)c3)cc2)C1=O,.,.,.,-82,.,-14,3,3,
Cc1[nH]c2ccc(C(=O)NCCCN3CCOCC3)cc2c1C,-3,4,-7,14,i,-3,4,2,
CCOC(=O)Nc1ccccc1C(=O)Nc1cc(C)cc(C)c1,-4,6,-7,-10,i,-12,-5,-1,
O=C(Nc1ccccc1)c1cc(C2CCCCN2S(=O)(=O)Cc2cccc(C(F)(F)F)c2)on1 (centres undefined),.,.,.,24,.,-4,-4,-7,
O=C(N/N=C/c1c[nH]c2c1ccc1ccccc12)c1ccc([N+](=O)[O-])cc1,-8,1,-9,3,i,.,4,4,
O=C(NNC(=S)Nc1ccc(F)cc1)[C@H]1C[C@@H]1c1ccccc1,-3,-2,17,3,i,-31,1,-1,
COc1ccc(-c2cc(C(=O)N3CCCc4ccccc43)no2)cc1OC,-6,-4,-2,.,i,.,3,1,
O=C(c1ccc(S(=O)(=O)N2CCCC2)cc1)N1CCCCC1,.,10,.,4,i,.,0,1,
C[C@H](CO)N1C[C@H](C)[C@@H](CN(C)C(=O)Nc2ccc(C(F)(F)F)cc2)Oc2c(NC(=O)CCC(F)(F)F)cccc2C1=O,.,1,.,18,.,-3,9,1,
COc1ccc(CCNC(=O)c2ccc(C)s2)cc1OC,4,-7,4,5,i,-22,-7,-4,
COc1ccccc1N1CCN(/N=C\c2sccc2C)CC1,-6,-9,-8,-25,i,.,1,3,
Cc1cc(-c2cc(-c3ccc(Cl)cc3)nc(N)c2C#N)co1,44*,43,?,.,i,-36,-17,5,PABP polyA inh retest=52*
CC(=O)C[C@H]1c2cc(C(F)(F)F)ccc2S(=O)(=O)N1c1ccc(N(C)C)cc1,.,.,.,-1,i,-13,7,-6,
O=C(Nc1nc2ccccc2[nH]1)c1ccc(Cl)cc1,-2,22,-1,-176,i,-53,10,-4,
CCN(CC)S(=O)(=O)c1ccc(NC(=O)COC(=O)c2c[nH]c(=O)[nH]c2=O)cc1,-6,-2,-6,14,i,0,1,6,
COc1ccccc1C1CCN(C(=O)c2ccco2)CC1,0,-9,0,15,i,2,-3,-1,
COc1ccc(C(=O)NC(=S)Nc2ccc(CN3CCOCC3)cc2)cc1Cl,-4,19,-8,-5,i,-6,4,-2,
O=C1N=C(N2CCCCC2)S/C1=C\c1ccc(Cl)cc1,-6,4,1,-14,i,-14,3,5,
O=C(C(=O)N1CCN(c2ccccc2Cl)CC1)c1c[nH]c2ccccc12,-1,9,6,-4,i,21,-1,-1,
CC(=C/c1ccccc1)/C=N/NC(=O)c1cnccn1,5,-9,7,-42,i,-21,2,3,
COc1cccc(=O)c2c(C)n(C)c(C)c12,34,-13,40,10,i,-5,-13,-7,
CC(Oc1ccc2c(-c3ccccc3)cc(=O)oc2c1)C(=O)NCCCN1CCOCC1 (centres undefined),60,5,4,6,i,-9,3,4,eIF4H inh retest=6;PABP polyA inh retest=3
CC(C)[C@H](NC(=O)c1ccccc1)C(=O)OCC(=O)c1c(N)n(C)c(=O)n(C)c1=O,.,-11,.,18,.,8,0,1,
COc1ccc(CCNC(=O)C2CCC(CNS(=O)(=O)c3ccccc3)CC2)cc1OC (centres undefined),-6,1,1,.,i,.,.,.,

# For reference, part of the list above.
SMILES,PABP polyA inh,CSC inhib,eIF4H inh,HIV Env fusion,Rce1 inh,UUG fidelity,MT1-MMP act inh,MT1-MMP act inh RFP,others
O=C(c1ccc(S(=O)(=O)N2CCCC2)cc1)N1CCCCC1,.,10,.,4,i,.,0,1,
C[C@H](CO)N1C[C@H](C)[C@@H](CN(C)C(=O)Nc2ccc(C(F)(F)F)cc2)Oc2c(NC(=O)CCC(F)(F)F)cccc2C1=O,.,1,.,18,.,-3,9,1,
COc1ccc(CCNC(=O)c2ccc(C)s2)cc1OC,4,-7,4,5,i,-22,-7,-4,
COc1ccccc1N1CCN(/N=C\c2sccc2C)CC1,-6,-9,-8,-25,i,.,1,3,
Cc1cc(-c2cc(-c3ccc(Cl)cc3)nc(N)c2C#N)co1,44*,43,?,.,i,-36,-17,5,PABP polyA inh retest=52*
CC(=O)C[C@H]1c2cc(C(F)(F)F)ccc2S(=O)(=O)N1c1ccc(N(C)C)cc1,.,.,.,-1,i,-13,7,-6,
O=C(Nc1nc2ccccc2[nH]1)c1ccc(Cl)cc1,-2,22,-1,-176,i,-53,10,-4,
CCN(CC)S(=O)(=O)c1ccc(NC(=O)COC(=O)c2c[nH]c(=O)[nH]c2=O)cc1,-6,-2,-6,14,i,0,1,6,
COc1ccccc1C1CCN(C(=O)c2ccco2)CC1,0,-9,0,15,i,2,-3,-1,
COc1ccc(C(=O)NC(=S)Nc2ccc(CN3CCOCC3)cc2)cc1Cl,-4,19,-8,-5,i,-6,4,-2,
O=C1N=C(N2CCCCC2)S/C1=C\c1ccc(Cl)cc1,-6,4,1,-14,i,-14,3,5,
O=C(C(=O)N1CCN(c2ccccc2Cl)CC1)c1c[nH]c2ccccc12,-1,9,6,-4,i,21,-1,-1,
CC(=C/c1ccccc1)/C=N/NC(=O)c1cnccn1,5,-9,7,-42,i,-21,2,3,
COc1cccc(=O)c2c(C)n(C)c(C)c12,34,-13,40,10,i,-5,-13,-7,
CC(Oc1ccc2c(-c3ccccc3)cc(=O)oc2c1)C(=O)NCCCN1CCOCC1 (centres undefined),60,5,4,6,i,-9,3,4,eIF4H inh retest=6;PABP polyA inh retest=3
CC(C)[C@H](NC(=O)c1ccccc1)C(=O)OCC(=O)c1c(N)n(C)c(=O)n(C)c1=O,.,-11,.,18,.,8,0,1,
COc1ccc(CCNC(=O)C2CCC(CNS(=O)(=O)c3ccccc3)CC2)cc1OC (centres undefined),-6,1,1,.,i,.,.,.,

# (further entries)
SMILES,PABP polyA inh,CSC inhib,eIF4H inh,HIV Env fusion,Rce1 inh,UUG fidelity,MT1-MMP act inh,MT1-MMP act inh RFP,others
CCOc1ccc(NC(=O)[C@@H](NC(=O)c2ccccc2Br)C(C)C)cc1,-3,8,-13,-51,i,-11,2,-1,
COc1ccc(NC(=S)Nc2ccc(N)c([N+](=O)[O-])c2)cc1,10,1,-11,-60,i,-16,9,5,
CCOc1ccc(NC(=O)CN(C)C(=O)Cc2c[nH]c3ccccc23)cc1OCC,.,-25,.,2,i,.,1,4,
Cc1cccnc1NC(=O)Cn1nc([N+](=O)[O-])cc1C,-8,3,-5,-1,i,-13,3,1,
